# Ecoli rRNA inh: selective bacterial rRNA inhibition in E. coli. 350,000 compounds, 1.6% hits. GFP signal change (wild-type ribosome), % (test concentration not listed). E. coli WT GFP vs humanized-ribosome RFP mutants, fluorescence, 24 h; hits give low values; DMSO median 0, no signal -100;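 active = significant combined selectivity score with lowered wild-type GFP, culture density cut under 30%, mutant RFP and density less affected; inactive = any of these conditions unmet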; note: one replicate is shown; some compounds called inactive have numbers as strong as hits
# B2AR ag: activates human beta-2 adrenergic receptor causing internalization; Am2.2-beta2AR cells, FAP receptor internalization, flow cytometry; reference of the scale not given here; response, % (concentration not given with the values); 340,000 compounds, 0.43% hits; AID 504454;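 active = response above a set limit, near 3 SD of response in nonfluorescent compounds, cut at about 42% in these data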;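 note: stock transfer was 100 nL into about 11 µL; a reference agonist was the positive control; negative values mostly stem from fluorescent compounds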
# Target sequence (P07550 whole entry, looked up): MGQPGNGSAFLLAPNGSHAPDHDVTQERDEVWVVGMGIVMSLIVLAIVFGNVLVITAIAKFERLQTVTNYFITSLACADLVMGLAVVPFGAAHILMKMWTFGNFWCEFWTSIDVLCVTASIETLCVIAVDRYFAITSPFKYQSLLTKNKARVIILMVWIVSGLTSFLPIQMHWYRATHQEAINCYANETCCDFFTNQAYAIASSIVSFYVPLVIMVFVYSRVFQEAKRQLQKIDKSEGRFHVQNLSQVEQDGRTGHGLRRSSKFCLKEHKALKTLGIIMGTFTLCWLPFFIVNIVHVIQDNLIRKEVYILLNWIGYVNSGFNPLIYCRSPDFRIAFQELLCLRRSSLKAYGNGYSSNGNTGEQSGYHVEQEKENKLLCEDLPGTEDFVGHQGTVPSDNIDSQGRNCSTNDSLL
# FGF22 binding: shifts melting point of recombinant human FGF22. Q9HCT0. recombinant FGF22 thermal shift, SYPRO orange fluorescence; percent of sucrose octasulfate shift, DMSO zero. 340,000 compounds, 1.5% hits. calls only at 9.99 µM;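 active = melting point raised past a set limit in the mean and every replicate; inconclusive = no clear call; three in four hits are not shown here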
# Target sequence (Q9HCT0 whole entry, looked up): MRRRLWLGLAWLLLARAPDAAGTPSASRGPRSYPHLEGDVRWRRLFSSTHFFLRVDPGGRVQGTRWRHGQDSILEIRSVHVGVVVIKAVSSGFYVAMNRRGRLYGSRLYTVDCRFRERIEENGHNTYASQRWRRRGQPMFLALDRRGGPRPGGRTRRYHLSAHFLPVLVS
# E coli growth: E. coli growth inhibition; Escherichia coli growth, OD600, 23 h; hits give low values; OD600 absorbance (concentration not given with the values); 330,000 compounds, 0.21% hits; AID 1053175;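 active = OD600 absorbance below the run mean of sample wells minus 3.6 SD, in any replicate, cut at about 0.56 in these data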;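 note: stock transfer was 300 nL into about 60 µL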
# HNF4A DNA FP: change in binding of human HNF4 alpha to DNA; AID 1224865; 360,000 compounds, 0.3% hits; activity change, % at 10 µM; P41235; HNF4a-FITC DNA binding, fluorescence polarization, 1 h; in the data active = activity change above about 30%, passing the limit was not always enough;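 note: controls were the assay level and a saturating level of protein; the project sought stronger binding though the title names inhibitors; some compounds called inactive have numbers as strong as hits; positive values seem to mean higher polarization but the record does not say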
# UCH37 inh: human UCH37 deubiquitinating enzyme inhibition; purified proteasome/UCH37, Ub-AMC cleavage fluorescence; AID 588478; Q9Y5K5; 330,000 compounds, 0.33% hits; inhibition, % (concentration not given with the values);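 active = mean of two replicates above 20%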;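 note: 0% = compound-free wells with enzyme and 100% = wells lacking proteasome; stock transfer was 100 nL into about 20 µL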
# Target sequence (Q9Y5K5 whole entry, looked up): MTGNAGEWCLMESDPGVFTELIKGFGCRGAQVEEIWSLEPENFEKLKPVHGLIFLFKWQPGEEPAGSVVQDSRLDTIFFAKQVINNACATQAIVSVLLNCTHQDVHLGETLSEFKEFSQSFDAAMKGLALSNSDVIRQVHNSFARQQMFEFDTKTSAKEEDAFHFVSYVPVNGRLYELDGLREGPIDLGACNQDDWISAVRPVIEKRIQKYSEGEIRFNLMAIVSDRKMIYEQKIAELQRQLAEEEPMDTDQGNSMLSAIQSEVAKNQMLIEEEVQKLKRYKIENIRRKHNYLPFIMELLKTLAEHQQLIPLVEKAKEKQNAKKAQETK
#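 Test system – human UCH37 enzyme supplied as purified proteasome complex · Incubation – 30 min preincubation with enzyme, 25 min cleavage at room temperature · Detection – AMC fluorescence from Ub-AMC cleavage, excitation 355 nm, emission 460 nm · Benchmarks – no-proteasome wells (full inhibition) and compound-free wells (no inhibition)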
# ALR inh: human ALR oxidase inhibition via reduced H2O2; P55789; purified ALR, DTT oxidation, H2O2 HRP-luminol luminescence; inhibition, % (test concentration not listed); 290,000 compounds, 3.8% hits;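 active = mean and each replicate at 75% or more; inconclusive = only one of the two met; inactive = neither met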;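 note: stock transfer was 7.5 nL into about 7.5 µL; 0% = neutral wells and 100% = wells with inactivated enzyme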
# Ecoli rRNA inh OD600: also measured in Ecoli rRNA inh; calls as there; OD600 change, %; measured here: OD600 growth;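 optical density of the mix in the first replicate; 0 = DMSO median and -100 = no signal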
# Ecoli rRNA inh RFP: also measured in Ecoli rRNA inh; calls as there; RFP signal change, %; measured here: RFP humanized mutant strains;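 first replicate; 0 = DMSO median and -100 = no signal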
# Numbers without * were called inactive; i = inactive; ? = inconclusive; . = not tested or not shown.
SMILES,Ecoli rRNA inh,Ecoli rRNA inh OD600,Ecoli rRNA inh RFP,B2AR ag,FGF22 binding,E coli growth,HNF4A DNA FP,UCH37 inh,ALR inh
Cc1cccc(NC(=O)CC(C)(C)C)c1,.,.,.,2,.,0.66,-0.4,-0.4,0
CCn1c(O)c2ccc(C(=O)N=NC(=O)c3ccccc3)cc2c1O,11,15,0.2,-5,i,0.68,3.0,1.8,-8
CCC(=O)NC1=C(Nc2ccc(N)cc2)C(=O)c2ccccc2C1=O,-12,-22,0.5,-12,i,0.69,-0.4,7.1,62
COC(C[C@H](O)C[C@@H](O)[C@H](C)OCc1ccccc1)OC,5,10,5.1,5,i,.,1.2,3.8,.
O=C(CN1C(=O)S/C(=C\c2ccc(F)cc2)C1=O)NC1C=CS(=O)(=O)C1 (stereo unspecified),-2,1,-2.0,3,i,0.68,3.4,0.7,0
O=C(Nc1ccccc1)c1cc(-n2cnnc2)ccc1Cl,.,.,.,14,.,0.66,4.1,1.1,29
COc1ccc2sc(-c3ccccc3OC)c(-c3ccc(OCCN(C)C)cc3)c2c1,-48,-78,-12,24,i,0.62,0.8,1.8,.
Cc1cnc(N2C(=O)c3ccc([N+](=O)[O-])cc3C2=O)s1,31,22,0.3,-1,i,0.71,-4.0,3.2,-14
Cc1cccc(NC(=O)CSc2nnc3ccc(-c4ccccn4)nn23)c1,-5,3,-3.7,9,i,0.67,-1.8,6.1,-2
Cc1ccc([C@@H]2CC=C(C(=O)O)[C@H](c3ccccc3F)N2S(=O)(=O)c2ccccc2C)cc1,-3,-23,-2.3,3,i,0.68,2.3,4.0,.
COc1ccc(-c2cc(C(F)(F)F)nc(SCCC(=O)N3CCCC3)n2)cc1,.,.,.,-9,.,0.76,3.0,-4.9,-1
COc1ccc(Cl)cc1NC(=O)c1cnc2sccn2c1=O,2,6,-2.8,-20,i,0.75,1.2,-67,-6
N#Cc1ccsc1NC(=O)c1cccc([N+](=O)[O-])c1,10,11,6.5,11,.,0.72,0.3,2.7,2
Cc1ccccc1NC(=O)c1ccc(S(=O)(=O)N(C)C)cc1,1,8,-1.7,6,i,0.73,-3.4,6.5,1
Cc1ccc(NC(=O)CN(C)CC(=O)Nc2ccc(N3CCOCC3)cc2)cc1F,-21*,-13*,1.5*,-6,i,0.67,1.8,-0.5,33
COc1ccc(OCC(=O)OCC(=O)NCC2CCCCC2)cc1,8,15,-3.0,-10,i,0.7,-2.8,1.0,-1
COc1cccc(CN(C(=O)Cc2c[nH]c3ccccc23)C(C(=O)NC2CCCCC2)c2ccc(C)o2)c1 (stereo unspecified),11,9,2.9,13,i,0.76,4.5,3.4,-13
COc1ccccc1N1CCN(C(=O)c2cc3cc(Cl)ccc3[nH]2)CC1,-19,-16,0.1,-1,i,0.71,-3.4,2.1,-30
CC1(c2ccc3c(c2)OCO3)NC(=O)N(CC(=O)Nc2ccccc2)C1=O (stereo unspecified),7,5,0.4,1,i,0.68,3.8,-0.3,.
CCOC(=O)N1CCN(CC(=O)NC(=O)Nc2ccc3c(c2)OCCO3)CC1,0,-8,-1.3,-3,i,0.69,-2.5,-1.6,.
Cn1c2ccccc2c2ccc3c(c21)C(=O)C=CC3=O,-25*,-0.8*,6.9*,76*,i,.,14,.,.
O=C(CSc1ccc2nnc(-c3ccccn3)n2n1)Nc1nccs1,5,11,0.5,9,i,0.72,1.1,6.9,-12
Cc1ccc(S(=O)(=O)N2CCOC2CNC(=O)C(=O)NCc2ccc3c(c2)OCO3)cc1 (stereo unspecified),2,6,-1.2,-1,i,0.71,0.4,0.9,-11
O=C(N1CCOCC1)n1cnc2ccccc21,.,.,.,2,.,0.58,0.7,1.2,.
COc1ccc2c(C)nc(Nc3nc(C)cc(C)n3)nc2c1,.,.,.,3,.,0.74,9.6,-6.6,9
O=C(NC(Nc1ncccn1)C(=O)c1ccccc1)c1ccccc1 (stereo unspecified),.,.,.,-9,.,0.71,-2.8,2.1,3
COc1ccccc1NC(NC(=O)c1ccccn1)C(Cl)(Cl)Cl (stereo unspecified),.,.,.,-5,.,0.71,-1.3,1.6,.
Cc1nn(C(=O)/C(C#N)=C/N(C)C)c(C)c1C,17,9,-1.9,1,i,0.67,4.8,0.6,1
Cc1sc(N/N=C/c2cccnc2)nc1-c1ccccc1,.,.,.,-10,.,.,-2.3,.,-3
COc1ccnc(-n2cccc2/C=N/O)c1C#N,12,-3,-1.5,0,i,.,3.4,.,0
COc1ccccc1-n1c(SCC(=O)NC2CC2)nc2ccccc2c1=O,8,10,-1.1,-8,i,0.66,-5.1,1.0,-7
O=C(CCC(=O)Nc1ccccc1Cl)N/N=C/c1ccccc1,1,7,-0.2,-6,i,.,-5.7,.,-17
COc1cc(NC(=O)c2cc(S(=O)(=O)N3CCCCC3)ccc2N2CCOCC2)cc(OC)c1,22,10,-0.6,0,i,0.7,1.1,0.3,-1
Cc1ccc(OCCCCN(C)Cc2ccccc2)c(Br)c1,-56,-79,-30,16,i,0.63,-3.3,4.4,-66
O=C(CNC(=O)c1ccc(Cl)c([N+](=O)[O-])c1)NCC1CCCO1 (stereo unspecified),1,8,-3.1,-29,i,0.69,1.1,-0.1,-2
CC(C)COc1ccc(C(=O)OCCN2CCCCC2)cc1,1,4,-1.2,0,i,0.69,-1.8,4.3,-2
COC(=O)COc1ccc2c(c1C)O/C(=C\c1ccco1)C2=O,13,12,-5.0,1,i,0.68,6.6,-2.5,4
O=C(COc1ccc(F)cc1)Nc1nnc(S(=O)(=O)N2CCCC2)s1,-2,2,1.0,7,i,0.76,-0.4,6.4,.
Cc1nn(-c2ccc(F)cc2)c(Cl)c1/C=C1\C(=O)Nc2ccccc21,8,10,-0.3,10,i,0.73,1.4,2.1,-3
Cc1cc(C)c(S(=O)(=O)N2CCCCC2CCNC(=O)C(=O)NC2CC2)c(C)c1 (stereo unspecified),.,.,.,-3,.,0.71,0.6,0.3,.

# An excerpt of these results, with two lines to a compound:
# Values run as follows: Ecoli rRNA inh | Ecoli rRNA inh OD600 | Ecoli rRNA inh RFP | B2AR ag | FGF22 binding | E coli growth | HNF4A DNA FP | UCH37 inh | ALR inh
Cn1c2ccccc2c2ccc3c(c21)C(=O)C=CC3=O
  -25* | -0.8* | 6.9* | 76* | i | . | 14 | . | .
O=C(CSc1ccc2nnc(-c3ccccn3)n2n1)Nc1nccs1
  5 | 11 | 0.5 | 9 | i | 0.72 | 1.1 | 6.9 | -12
Cc1ccc(S(=O)(=O)N2CCOC2CNC(=O)C(=O)NCc2ccc3c(c2)OCO3)cc1 (stereo unspecified)
  2 | 6 | -1.2 | -1 | i | 0.71 | 0.4 | 0.9 | -11
O=C(N1CCOCC1)n1cnc2ccccc21
  . | . | . | 2 | . | 0.58 | 0.7 | 1.2 | .
COc1ccc2c(C)nc(Nc3nc(C)cc(C)n3)nc2c1
  . | . | . | 3 | . | 0.74 | 9.6 | -6.6 | 9

# (cont.)
SMILES,Ecoli rRNA inh,Ecoli rRNA inh OD600,Ecoli rRNA inh RFP,B2AR ag,FGF22 binding,E coli growth,HNF4A DNA FP,UCH37 inh,ALR inh
COc1ccc(C(=O)O)cc1S(=O)(=O)N(C)C,12,-3,-1.1,4,i,0.63,1.5,-2.8,-14
CCC(=O)c1ccccc1OCCSc1nc(C)cc(=O)[nH]1,.,.,.,-14,.,0.65,-1.5,2.0,9
C/C(=N\NC(=O)COc1ccccc1[N+](=O)[O-])c1cccs1,-2,-6,-4.4,-29,i,.,-4.1,.,0
Cc1ccccc1CN1C(=O)c2ccccc2Sc2ccc(C(=O)NCCCN3CCOCC3)cc21,-55,-78,-16,14,i,0.72,1.8,5.9,-6
CSc1ccc(C(O)c2ncc(-c3ccc(F)cc3)[nH]2)cc1 (stereo unspecified),-3,4,-1.0,.,i,.,1.1,.,.
Cc1ccc(C(=O)CCC(=O)Nc2ccccc2C)cc1C,6,16,-6.2,-7,i,0.71,22,4.5,-7
Nc1nonc1NC(=O)NN=C1CCCCC1,15,12,1.9,10,i,0.69,-3.2,3.6,11
COCCNc1nnc(SCC(=O)NNC(=O)c2ccco2)s1,11,12,-2.3,-6,i,0.71,-3.0,1.5,-2
O=C1N[C@@H](c2ccccc2)COC(=O)[C@@H](Cc2ccc(F)cc2)CC/C=C/C[C@H]1CC(=O)N(CCO)Cc1ccccc1,-8,-12,-1.4,4,i,.,1.1,.,.
Cc1ccc(N=Cc2c(O)c3ccccc3oc2=O)cc1F,1,1,3.2,-11,i,0.69,4.6,-42,21
CC(C)Oc1ccc(/C=N/NC(=O)c2ccc(N(Cc3ccccc3)S(C)(=O)=O)cc2)cc1,10,16,0.5,9,i,.,-0.9,.,-1
CN(C)CCCNc1c2ccccc2nc2ccccc12,5,-22,-0.4,36,i,0.58,-45,-35,1
Cc1ccc(NC(=O)c2ccc(=O)n(CC(=O)Nc3ccccc3)n2)cc1,-4,-7,5.4,0,i,0.71,5.2,1.3,-4
COC(=O)c1[nH]c2ccc(Cl)cc2c1NC(=O)c1ccccc1[N+](=O)[O-],.,.,.,-6,.,0.7,-4.9,4.1,1
CC(C)(C)OC(=O)N/N=C\c1ccc(OC(=O)c2ccco2)cc1,13,6,-0.5,-5,i,.,0.5,.,-5
COc1cc(OC)cc(C2=Cc3ccccc3C(CC(C)=O)N2c2ccc(C#CC3(N)CCCCC3)cc2)c1 (stereo unspecified),0,23,21,.,i,.,6.4,.,.
COc1ccc(NC(=O)c2cnc(SC)nc2C)c(OC)c1,8,10,2.6,5,i,0.7,4.4,-1.6,-13
CCc1c(C)nc(SCC(=O)N2CCc3ccccc32)[nH]c1=O,13,18,1.5,.,i,0.65,.,1.4,.
COc1ccc(NC(=O)c2cnc(NS(=O)(=O)c3ccccc3)nc2)cc1,0,-1,-2.0,-7,i,0.7,-0.9,2.3,0
Cn1c(CNC(=O)CCNC(=O)c2ccccc2F)cc(=O)n(C)c1=O,3,14,-1.5,3,i,0.7,16,-0.9,1
CC(C)Cn1c(CN2CCCCC2C)nc2c1c(=O)n(C)c(=O)n2C (stereo unspecified),2,11,0.7,3,i,0.77,-0.9,2.4,?
CCc1ccc(N2CCN(CCNC(=O)Nc3ccccc3)CC2)cc1,15,13,1.6,-1,i,0.67,3.1,1.3,23
COc1ccc(OCC(=O)Nc2cccc(C(=O)Nc3ccccc3C(=O)O)c2)cc1,.,.,.,0,.,0.66,1.3,0.9,48
COc1ccc(C2=NS(=O)(=O)N(C)C(C(=O)NCc3cccs3)=C2)cc1OC,-7,-18,-1.2,8,i,0.67,-1.7,5.2,3
COc1ccc(CC(=O)Nc2cc(F)ccc2F)cc1S(=O)(=O)N1CCOCC1,-5,-3,-1.2,.,.,.,-0.4,.,.

# The list is partial; rates above refer to the full screens.
